Vif A3G: inhibitors of Vif binding to APOBEC3G peptide, primary screen, biochemical, TR-FRET, GST-Vif 1-94, biotin-A3G peptide, dose response retest (AID 1117319); TR-FRET GST-Vif / biotin-A3G peptide binding; higher % means a stronger effect; test concentration not given here; strong numbers were not always called active; inhibition, %; hits with a dose series show IC50 in µM; 260,000 tested, 0.57% active;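 active = above the screen mean plus three standard deviations and confirmed in dose response; inconclusive = results disagree or hit not tested in dose response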;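 note: Vif residues 1-94 fused to GST binding biotinylated APOBEC3G peptide 110-148; 0% = full assay without inhibitor and 100% = GST in place of GST-Vif; retest series ran down from 100 µM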
Beta2AR agonist: agonists of human beta-2 adrenergic receptor inducing internalization | Am2.2-beta2AR cells, FAP receptor internalization, flow cytometry; reference of the scale not given here | response, % (concentration not given with the values) | 340,000 tested, 0.43% active;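 active = response above a set limit, near 3 SD of response in nonfluorescent compounds, cut at about 42% in these data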;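 note: stock transfer was 100 nL into about 11 µL; a reference agonist was the positive control; negative values mostly stem from fluorescent compounds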
Target sequence (P07550 whole entry, looked up): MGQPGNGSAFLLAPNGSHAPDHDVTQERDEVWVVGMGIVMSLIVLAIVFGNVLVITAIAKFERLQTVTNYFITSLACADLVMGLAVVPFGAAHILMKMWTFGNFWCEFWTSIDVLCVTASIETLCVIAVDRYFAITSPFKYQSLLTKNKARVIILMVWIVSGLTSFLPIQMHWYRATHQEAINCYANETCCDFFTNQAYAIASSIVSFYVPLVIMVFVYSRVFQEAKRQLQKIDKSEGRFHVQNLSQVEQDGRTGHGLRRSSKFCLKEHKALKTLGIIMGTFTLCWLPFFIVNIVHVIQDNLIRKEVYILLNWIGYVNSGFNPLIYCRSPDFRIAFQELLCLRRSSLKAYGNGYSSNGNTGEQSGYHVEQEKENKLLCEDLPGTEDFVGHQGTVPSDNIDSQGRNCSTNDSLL
UCH37 DUB inh: inhibitors of human deubiquitinating enzyme UCH37 | purified proteasome/UCH37, Ub-AMC cleavage fluorescence | 330,000 tested, 0.33% active | inhibition, % (concentration not given with the values) | AID 588478 | Q9Y5K5;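 active = mean of two replicates above 20%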;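 note: 0% = compound-free wells with enzyme and 100% = wells lacking proteasome; stock transfer was 100 nL into about 20 µL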
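Test system – human UCH37 enzyme supplied as purified proteasome complex · Incubation – 30 min preincubation with enzyme, 25 min cleavage at room temperature · Detection – AMC fluorescence from Ub-AMC cleavage, excitation 355 nm, emission 460 nm · Benchmarks – no-proteasome wells (full inhibition) and compound-free wells (no inhibition)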
HNF4A DNA FP: change in binding of human HNF4 alpha to DNA | HNF4a-FITC DNA binding, fluorescence polarization, 1 h | activity change, % at 10 µM | 360,000 tested, 0.3% active | AID 1224865; in the data active = activity change above about 30%, passing the limit was not always enough;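 note: controls were the assay level and a saturating level of protein; the project sought stronger binding though the title names inhibitors; some compounds called inactive have numbers as strong as hits; positive values seem to mean higher polarization but the record does not say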
Target sequence (P41235 whole entry, looked up): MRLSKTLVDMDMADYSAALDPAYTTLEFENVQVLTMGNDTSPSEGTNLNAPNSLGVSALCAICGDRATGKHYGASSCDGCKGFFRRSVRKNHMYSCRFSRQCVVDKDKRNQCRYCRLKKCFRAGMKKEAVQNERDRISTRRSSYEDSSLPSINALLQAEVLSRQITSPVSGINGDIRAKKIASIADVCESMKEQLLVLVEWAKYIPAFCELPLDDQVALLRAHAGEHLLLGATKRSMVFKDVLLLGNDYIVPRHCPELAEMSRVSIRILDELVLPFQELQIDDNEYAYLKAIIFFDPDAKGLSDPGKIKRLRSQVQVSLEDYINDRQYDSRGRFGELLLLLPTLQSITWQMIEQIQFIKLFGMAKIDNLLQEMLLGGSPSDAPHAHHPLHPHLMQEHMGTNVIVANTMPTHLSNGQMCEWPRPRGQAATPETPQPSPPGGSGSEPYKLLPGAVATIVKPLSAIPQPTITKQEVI
LANA-H2A inh: blocks KSHV LANA binding to histone H2A/H2B. Q9QR71. cell-free LANA-H2A/H2B peptide, fluorescence polarization. inhibition, % (concentration not given with the values). 320,000 tested, 0.6% active; in the data active = inhibition mostly above about 10%, no sharp cut-off; inactive = mostly below about 6.7%;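 note: stock transfer was 7.5 nL into about 10 µL; 0% = median of vehicle wells and 100% = median of positive control wells; one replicate is shown; the record names a cut of 25% in any replicate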
Bfl-1 A1 inh: inhibitors of the anti-apoptotic protein A1, read as caspase activation | MEF A1-2A-BIM cells, Caspase-Glo 3/7 luminescence, 3 h; percent of clofoctol response, vehicle zero | caspase activation, % (no concentration beside the values) | 330,000 tested, 0.066% active | AID 2462;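 active = over half of replicate activation scores above 10%, or exactly half above 10 with the replicate mean above 10; inconclusive = replicate mean below 10 yet half the replicates above 10; inactive = over half of replicates below 10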;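 note: wells of about 30 µL received 50 nL stock; many hits fall short of the cut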
E coli growth: inhibitors of Escherichia coli growth; OD600, 23 h; active compounds read low; 330,000 tested, 0.21% active; OD600 absorbance (no concentration beside the values);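 active = OD600 absorbance below the run mean of sample wells minus 3.6 SD, in any replicate, cut at about 0.56 in these data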;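 note: stock transfer was 300 nL into about 60 µL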
* marks the source's active call; other numbers are inactive results; ? = inconclusive; . = no result given; & = joins results of further samples.

SMILES	Vif A3G	Beta2AR agonist	UCH37 DUB inh	HNF4A DNA FP	LANA-H2A inh	Bfl-1 A1 inh	E coli growth
C[C@H](NCc1c[nH]c2ccccc12)c1ccccc1	.	0	3.4	1.7	-3.3	3.1	0.64
COc1ccc(C)cc1S(=O)(=O)n1cnc2ccccc21	-4%	5	.	-1.7	-2.9	3.4	.
Cc1ccc(C)c(S(=O)(=O)N2CCN(C(=O)Cn3[nH]c(=O)c4ccccc4c3=O)CC2)c1	0%	8	2.6	-0.3	4.8	0.9	0.67
CCOC(=O)c1ccc(N2C(=O)CC(NNC(=O)c3ccc(Br)s3)C2=O)cc1 (stereo not given)	3%	-3	3.9	-0.7	-4.0	2.4	0.6
COc1ccc(NC(=O)NN(C(=O)c2ccccc2)C(C)(C)C)cc1	.	-5	2.6	-3.9	0.4	0.5	0.67
Cc1cc(C)cc(C(=O)Nc2cccnc2Cl)c1	2%	-3	.	-0.6	-1.1	-0.7	.
COc1ccc(CNC(=O)c2ccc(-c3ccccc3)cc2)cc1	3%	21	2.2	-0.9	-2.6	0.0	0.72
O=C(NCc1nc2ccccc2[nH]1)C1=C[C@H](c2ccc(C(F)(F)F)cc2)C[C@H](OCc2ccc(CO)cc2)O1	.	6	4.6	-2.7	3.6	0.0	.
Cc1ccccc1N(CC(=O)NCCSCc1ccco1)S(C)(=O)=O	3%	-3	-2.1	-2.5	3.6	0.6	0.7
COc1ccc(CN2CCC(C(=O)N3CCCC(C)C3)CC2)cc1OC (stereo not given)	15%	-6	-1.8	-0.5	-2.9	-0.3	0.69
FC(F)(F)c1cccc(Cc2noc(CN3CCCC3)n2)c1	.	-8	6.0	-5.3	-5.2	0.9	0.68
CCN(Cc1ccccc1)C(=O)c1cc(COc2c(F)cccc2F)on1	6%	-4	1.2	0.1	5.8	-1.3	0.66
Nc1cc(S(=O)(=O)Nc2cc(Cl)ccc2Cl)ccc1N1CCOCC1	-8%	8	2.8	-2.4	10	-0.3	0.64
O=C(Nc1cccc2ncccc12)c1ccccc1F	.	12	-0.3	1.9	-4.4	-1.0	0.68
CC(C)(C)c1ccc(C(=O)NCC(=O)N/N=C/c2cccs2)cc1	0%	1	.	2.7	1.0	1.3	.

Some of the entries so far, as a markdown table:
| mol | Vif A3G | Beta2AR agonist | UCH37 DUB inh | HNF4A DNA FP | LANA-H2A inh | Bfl-1 A1 inh | E coli growth |
| --- | --- | --- | --- | --- | --- | --- | --- |
| CCN(Cc1ccccc1)C(=O)c1cc(COc2c(F)cccc2F)on1 | 6% | -4 | 1.2 | 0.1 | 5.8 | -1.3 | 0.66 |
| Nc1cc(S(=O)(=O)Nc2cc(Cl)ccc2Cl)ccc1N1CCOCC1 | -8% | 8 | 2.8 | -2.4 | 10 | -0.3 | 0.64 |
| O=C(Nc1cccc2ncccc12)c1ccccc1F | . | 12 | -0.3 | 1.9 | -4.4 | -1.0 | 0.68 |

New compounds follow:
SMILES	Vif A3G	Beta2AR agonist	UCH37 DUB inh	HNF4A DNA FP	LANA-H2A inh	Bfl-1 A1 inh	E coli growth
O=C(CSc1nnc(-c2ccccc2)o1)Oc1ccc(Br)cc1	-7%	2	1.6	-0.8	-1.8	-1.5	0.66
O=C(CCC(=O)N(CC(=O)NC1CCCC1)Cc1ccc2c(c1)OCO2)Nc1nccs1	0%	.	0.3	.	-1.9	0.0	0.71
COc1cc(NS(C)(=O)=O)c(OC)cc1NC(=O)c1ccccc1	5%	-4	2.5	-2.0	3.3	0.3	0.75
COc1ccc(CC(=O)Nc2ccc(C(C)=O)cc2)cc1	.	20	0.1	1.3	-7.3	-1.6	0.7
COc1ccc(Cn2nnnc2C(c2ccncc2)N2CCOCC2)cc1 (stereo not given)	3%	2	1.2	-1.0	4.4	0.0	0.67
Cc1nn(-c2ccccc2)c(C)c1C(=O)OCC(=O)c1c(N)n(CC(C)C)c(=O)n(C)c1=O	0%	-13	6.0	1.9	2.1	-0.6	0.7
COc1ccc(-n2c(Cc3cccn3C)nnc2SCC(N)=O)cc1	>100µM*	-4	0.5	3.5	0.9	0.1	0.73
Cc1ccc(C(C(=O)NC2CCCCC2)N(Cc2ccco2)C(=O)Cc2c[nH]c3ccccc23)o1 (stereo not given)	-4%&23%	8	5.4	0.0	0.2	0.4	0.71
CCOc1ccc(CC(=O)NCCS(=O)(=O)N2CCN(c3ccccc3)CC2)cc1	-8%	2	0.6	-2.2	8.0	-0.5	0.63
CN(Cc1ccccc1)C(=O)c1ccc(NC(=O)Cc2ccc(NC(=O)C3CCCN(C(=O)C4CCC4)C3)cc2)cc1 (stereo not given)	8%	-2	2.6	1.5	.	.	0.69
Cc1sc2ncn(CC(=O)NCc3ccco3)c(=O)c2c1-c1ccccc1	4%	-3	2.9	-9.1	0.6	0.1	0.71
Cc1ccc(Cn2c(SCC(=O)NCc3ccco3)nc3ccsc3c2=O)cc1	3%	3	-0.3	2.6	-3.2	0.3	0.72
COc1ccccc1NS(=O)(=O)c1ccc(N/N=C/C=C/c2ccccc2[N+](=O)[O-])c([N+](=O)[O-])c1	.	20	.	0.8	-1.4	1.2	.
COc1cc(OC)cc(C(=O)NCC(=O)OCC(=O)C(C)(C)C)c1	.	0	3.1	0.7	7.3	-0.1	0.69
CN1C(=O)/C(=C/c2ccco2)SC1=Nc1cccc(C(=O)O)c1	19µM*	2	15	-7.1	-0.5	-1.7	0.68
COc1cccc(CN2CCN(Cc3cc(OC)c(OC)cc3OC)CC2)c1	-2%	5	4.1	-2.6	1.0	0.0	0.69
Cc1nn(CCOc2ccccc2)c(=O)n1-c1cccc(F)c1	-1%	5	5.1	5.1	3.7	0.0	0.71
O=C(O)C=C1C2CC3CC(C2)CC1C3	-3%	4	5.7	1.4	-1.8	0.9	0.72
CC1CCN(C(=O)COC(=O)c2ccc([N+](=O)[O-])o2)CC1	-1%	2	16	0.3	2.1	1.4	0.65
c1ccc2c(c1)COC(CN1CCCCC1)OC2	2%	0	2.3	-1.2	-1.7	2.1	0.7
O=C(Nc1ccccc1Oc1ccccc1)c1cc([N+](=O)[O-])ccc1Cl	13%	-9	7.4	-3.1	.	-0.2	0.66
c1ccc(Sc2ncnc3c2oc2ccccc23)cc1	0%	-1	1.0	4.1	1.6	-3.2	0.67
C/C(CCC1CC(C)OC1=O)=N\NC(N)=O (stereo not given)	.	-2	.	-1.8	6.5	1.5	.
COc1ccccc1N1C(=S)NC2CS(=O)(=O)CC21 (stereo not given)	?	0	3.4	-5.5	5.7	1.1	0.71
Cc1occc1-c1nnc(SCC(=O)Nc2nccs2)n1Cc1ccco1	4%	-13	0.6	2.4	2.1	-1.7	0.74
Cc1ccccc1N1OC2C(=O)N(c3ccc(F)cc3)C(=O)C2C1c1ccccn1 (stereo not given)	-3%	11	6.7	1.7	1.7	0.2	0.7
CC[C@@]1(c2cccc(C)c2)C(=O)N(C(=O)OC)N1C(=O)OC	.	-5	-2.1	4.8	2.2	0.2	.
CC(C)(C)N=Cc1c(O)ccc2oc3c(c12)CCCC3	.	26	3.7	-68	-0.4	0.5	0.67
COc1cc(S(=O)(=O)N2CCOCC2)cc(C(=O)NCC(c2cccs2)N2CCOCC2)c1OC (stereo not given)	.	-4	-4.6	-2.7	-4.5	0.0	0.67
Cc1occc1C(=O)NCc1cccc(CNC(=O)c2ccoc2C)c1	12%	6	2.2	-16	7.8	0.6	0.71
Cc1ccc(NC(=O)CSCC(=O)O)cc1	3%	5	0.1	0.1	-4.6	-0.3	0.71
CCC(C(=O)NCc1ccc(F)cc1)N(CCc1ccccc1)C(=O)c1snc(C(N)=O)c1N (stereo not given)	.	-22	-16	-2.9	6.3	-0.9	0.68
C=CCCCCCCCC(=O)OC	.	3	2.3	1.4	1.1	1.2	0.69
CCOC(=O)c1oc2ccccc2c1COC(=O)CNC(=O)c1ccc(C)cc1	3%	-5	0.2	-3.9	1.5	0.2	0.69
C/C=C/C(=O)Nc1cccc(C2=NOC3(C2)C[C@@H](C(N)=O)N(C(=O)/C(C)=C/C)C3)c1 (stereo not given in full)	11%	-3	-0.5	2.0	-1.3	-1.5	.
CC(=O)N(C)c1cccc(-c2ccc3nnc(C)n3n2)c1	-3%	6	-44	-1.0	-1.6	0.2	0.68
COc1ccc(C2NC(=O)c3sc(=S)n(-c4ccccc4)c3N2)cc1 (stereo not given)	3%	-4	3.1	-2.2	-5.7	1.3	0.75
CN(CC(=O)Nc1ccccc1C(=O)N1CCCC1)S(=O)(=O)c1ccc(Br)cc1	-10%&17%	5	4.9	1.0	1.2	0.3	0.72
Cc1ccccc1NC(=O)COc1coc(CN2CCCc3ccccc32)cc1=O	.	1	0.6	-3.7	-3.8	0.5	0.67
CN1CCN(CCCNC(=O)c2ccc(/C=C3\Oc4ccccc4N(Cc4ccccc4F)C3=O)cc2)CC1	.	12	-376	-1.9	0.1	0.1	0.64
COc1ccc(NC2CCCN(C(=O)C3=NN(C)C(=O)CC3)C2)cc1OC (stereo not given)	.	-2	-1.0	0.9	-2.2	0.1	0.69
CCN(CC)S(=O)(=O)c1cccc(C(=O)OC2CCOC2=O)c1 (stereo not given)	.	-3	0.4	1.5	-0.1	0.2	0.69
O=C(COc1cccnc1[N+](=O)[O-])NCCc1ccc(F)cc1	.	-3	4.0	-1.8	0.1	-0.3	0.66
COc1cccc(OCCNC(=O)c2cc([N+](=O)[O-])cc([N+](=O)[O-])c2)c1	0%	7	4.8	-1.2	-0.2	0.4	0.69
CCOc1ccc(-c2noc(CCCC(N)=O)n2)cc1OC	28%	-5	4.3	0.2	4.6	1.0	0.64
COc1ccccc1NC(=O)Cc1nnc(SCC(=O)c2ccc(F)cc2)n1C	3%	-15	5.0	-1.1	3.0	-0.2	0.71
O=C(NNS(=O)(=O)c1ccc(F)cc1)c1ccc([N+](=O)[O-])cc1Cl	-3%	-9	0.1	0.2	1.6	1.1	0.69
CC(C)(Cc1cc(CC(C)(C)C(=O)O)cc(C(C)(C)C)c1)C(=O)O	.	1	0.4	2.0	-0.2	1.5	0.7
COc1ccccc1NC(=S)N(Cc1ccccc1)Cc1cccs1	1%	9	1.8	-2.6	-0.5	-0.4	0.69
Oc1ccc(Br)cc1/C=N/Nc1ccccn1	.	10	.	0.1	0.7	1.1	.
CCCN(CCC)S(=O)(=O)c1ccc(C(=O)N2CCOCC2)cc1	4%	7	-0.1	-0.1	0.3	-0.2	0.7
CCCCCCCCCCOC(=O)Cn1c(COc2ccc(Cl)cc2)[n+](C)c2ccccc21	.	5	.	13	10	1.3	.
O=C(Nc1ncn[nH]1)C(F)(F)C(F)F	3%	3	1.0	1.0	0.2	0.7	0.73
NS(=O)(=O)c1ccc(CCNC(=O)CCCCCNc2nc(=S)[nH]c3ccccc23)cc1	-2%	.	6.5	.	-5.3	1.5	0.7
CCOc1ccccc1C(=O)NCCCCNC(=O)c1ccccc1OCC	.	-10	2.2	1.0	-1.1	-0.1	0.7
CCc1nc2oc3ccccc3c(=O)c2c(=O)n1Cc1ccc(OC)cc1	19%	-15	3.5	3.3	-1.3	1.2	0.64
NS(=O)(=O)c1ccc(NC(=O)c2ccc(F)cc2F)c(NC(=O)c2ccc(F)cc2F)c1	-3%	-9	3.7	1.3	-2.8	0.4	0.69
Cc1cc(C)c(NC(=O)CSc2nc3ccncc3[nH]2)c(C)c1	-1%	3	0.2	3.9	-1.3	-1.2	0.64

Assay outcomes as filed in PubChem.
